Assay outcomes deposited in PubChem BioAssay by several laboratories.
T cruzi inh = T. cruzi replication inhibition. 300,000 tested, 1.4% active. inhibition, % (concentration not given with the values). T. cruzi beta-gal in NIH3T3, luminescence, 90 h;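 active = mean inhibition across valid replicates above about 55%, limit read from the data; inconclusive = mean below that limit but half or more replicates reach it; inactive = mean below it, under half of replicates reach it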;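 note: signal also drops with host cell toxicity which is not excluded here; 0% = plate median of DMSO wells and 100% = zero luminescence signal; higher percent means less beta-gal luminescence so fewer parasites; stock transfer was 50 nL into about 50 µL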
B2AR ag = agonists of human beta-2 adrenergic receptor inducing internalization; P07550; Am2.2-beta2AR cells, FAP receptor internalization, flow cytometry; reference of the scale not given here; response, % (test concentration not listed); 340,000 tested, 0.43% active; AID 504454;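 active = response above a set limit, near 3 SD of response in nonfluorescent compounds, cut at about 42% in these data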;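 note: stock transfer was 100 nL into about 11 µL; a reference agonist was the positive control; negative values mostly stem from fluorescent compounds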
Target sequence (P07550 whole entry, looked up): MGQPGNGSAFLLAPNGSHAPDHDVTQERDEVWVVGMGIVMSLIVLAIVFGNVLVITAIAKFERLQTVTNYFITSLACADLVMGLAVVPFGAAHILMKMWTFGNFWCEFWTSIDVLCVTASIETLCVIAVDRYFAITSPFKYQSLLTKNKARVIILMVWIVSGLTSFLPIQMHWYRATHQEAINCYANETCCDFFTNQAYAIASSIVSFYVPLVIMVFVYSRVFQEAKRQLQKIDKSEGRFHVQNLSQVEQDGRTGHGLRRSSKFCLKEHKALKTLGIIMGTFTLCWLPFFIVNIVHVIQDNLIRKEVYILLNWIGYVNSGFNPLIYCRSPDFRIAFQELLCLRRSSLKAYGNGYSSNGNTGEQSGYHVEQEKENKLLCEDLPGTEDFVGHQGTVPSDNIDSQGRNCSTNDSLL
Calb FLC = C. albicans growth modulation with fluconazole; 300,000 tested, 0.57% active; C. albicans CaCi-2 (fluconazole-resistant clinical isolate) + fluconazole, Alamar Blue growth, 48 h; growth inhibition, % (concentration not given with the values);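 active = most replicates above 75%; inconclusive = exactly half above 75%; inactive = most below 75%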;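 note: all wells also contain fluconazole at 8 µg/ml as a sub-toxic cotreatment; 0% = median of DMSO wells and 100% = median of geldanamycin control wells; wells of about 8 µL received 7.5 nL stock; the first replicate is given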
Beta apoptosis = blocks beta cell apoptosis; INS-1E cytokine-induced death, ATP luminescence, 48 h; percent of positive-control rescue, neutral wells zero; protection from apoptosis, % (test concentration not listed); 300,000 tested, 0.8% active; AID 435005;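 active = all replicates at 75% or more, or half of them and the mean; inconclusive = half reach 75% but not the mean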;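 note: 0% = cytokine-treated negative control wells and 100% = positive control rescue; higher means more ATP so stronger rescue from cytokine killing; wells of about 40 µL received 100 nL stock; the first replicate is given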
LANA-H2A inh = blocks KSHV LANA binding to histone H2A/H2B; AID 2629; Q9QR71; 320,000 tested, 0.6% active; inhibition, % (no concentration beside the values); cell-free LANA-H2A/H2B peptide, fluorescence polarization; in the data active = inhibition mostly above about 10%, no sharp cut-off; inactive = mostly below about 6.7%;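 note: stock transfer was 7.5 nL into about 10 µL; 0% = median of vehicle wells and 100% = median of positive control wells; one replicate is shown; the record names a cut of 25% in any replicate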
UCH37 DUB inh = inhibitors of human deubiquitinating enzyme UCH37. Q9Y5K5. inhibition, % (concentration not given with the values). 330,000 tested, 0.33% active. purified proteasome/UCH37, Ub-AMC cleavage fluorescence. AID 588478;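 active = mean of two replicates above 20%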;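 note: 0% = compound-free wells with enzyme and 100% = wells lacking proteasome; stock transfer was 100 nL into about 20 µL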
Target sequence (Q9Y5K5 whole entry, looked up): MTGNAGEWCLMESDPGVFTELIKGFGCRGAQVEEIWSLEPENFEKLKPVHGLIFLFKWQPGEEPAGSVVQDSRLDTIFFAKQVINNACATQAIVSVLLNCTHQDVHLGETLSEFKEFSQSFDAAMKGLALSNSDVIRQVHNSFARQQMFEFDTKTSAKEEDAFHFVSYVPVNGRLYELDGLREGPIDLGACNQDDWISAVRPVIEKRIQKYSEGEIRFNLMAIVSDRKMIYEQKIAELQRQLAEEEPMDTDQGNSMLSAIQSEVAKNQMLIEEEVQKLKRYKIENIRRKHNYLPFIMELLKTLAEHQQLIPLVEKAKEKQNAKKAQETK
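assay system = human UCH37 enzyme supplied as purified proteasome complex | amount = proteasome at 0.15 nM in the dispensed enzyme solution | schedule = 30 min compound-proteasome preincubation then 25 min substrate reaction, room temperature | measured by = fluorescence, ex 355 nm, em 460 nm | benchmarks = no-proteasome wells (full inhibition) and compound-free wells (no inhibition)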
RanGTP-Imp inh = inhibitors of RanGTP-importin-beta interaction, primary screen, biochemical, FRET, CFP-Ran, YFP-importin-beta, homogeneous; 300,000 tested, 1.1% active; cell-free CFP-Ran/YFP-importin-beta FRET ratio; inhibition, % (concentration not given with the values);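 active = most replicates above 15%; inconclusive = exactly half above 15%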;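 note: 0% = DMSO wells and 100% = Ran loaded with GDP instead of GTP; wells of about 40 µL received 100 nL stock; the first replicate is given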
A1 inh = inhibitors of the anti-apoptotic protein A1, read as caspase activation | MEF A1-2A-BIM cells, Caspase-Glo 3/7 luminescence, 3 h; percent of clofoctol response, vehicle zero | caspase activation, % (test concentration not listed) | 330,000 tested, 0.066% active | AID 2462;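 active = over half of replicate activation scores above 10%, or exactly half above 10 with the replicate mean above 10; inconclusive = replicate mean below 10 yet half the replicates above 10; inactive = over half of replicates below 10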;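 note: wells of about 30 µL received 50 nL stock; many hits fall short of the cut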
* = called active by the depositor.

How did O=C(O)CCN1C(=O)/C(=C\c2ccncc2)SC1=S do in these assays?
T cruzi inh: -6; B2AR ag: 0; Calb FLC: -1; Beta apoptosis: -6; LANA-H2A inh: 2.6; UCH37 DUB inh: 9.6; RanGTP-Imp inh: -1.2; A1 inh: 3.5

How did CCOC(=O)[C@@H]1[C@H]2COc3ccccc3[C@H]2N2C(=O)N(c3cccc(F)c3)C(=O)[C@]12C do in these assays?
T cruzi inh: -12; B2AR ag: -2; Calb FLC: -2; Beta apoptosis: -1; LANA-H2A inh: 0.4; UCH37 DUB inh: 4.7; RanGTP-Imp inh: -0.2; A1 inh: 0.4

What do the screens show for `O=C(OCc1ccc(Cl)c(Cl)c1)c1cnccn1`?
T cruzi inh: -7; B2AR ag: -2; Calb FLC: 1; Beta apoptosis: -1; LANA-H2A inh: 2.1; UCH37 DUB inh: 6.8; RanGTP-Imp inh: -0.8; A1 inh: -0.1

What do the screens show for `COc1ccc(OC)c2c1sc(=NC(=O)C1CCCCC1)n2C`?
T cruzi inh: 24; B2AR ag: -9; Calb FLC: -4; Beta apoptosis: -4; LANA-H2A inh: -3.1; UCH37 DUB inh: -5.6; RanGTP-Imp inh: inconclusive; A1 inh: 0.4

Results for CC(C)(C)c1ccc(-c2noc(CCC(=O)NCC3CCCO3)n2)cc1 (configuration not stated) ?
T cruzi inh: 9; B2AR ag: -3; Calb FLC: -13; Beta apoptosis: -3; LANA-H2A inh: 1.1; UCH37 DUB inh: 1.3; RanGTP-Imp inh: 2.3; A1 inh: -0.2

How did O=C(Nc1ccc(-c2nc3ccccc3[nH]2)cc1)c1ccccc1NS(=O)(=O)c1ccc(F)cc1 do in these assays?
T cruzi inh: -4; B2AR ag: 14; Calb FLC: 16; Beta apoptosis: 2; LANA-H2A inh: 1.5; UCH37 DUB inh: -175; RanGTP-Imp inh: 3.9; A1 inh: 0.5

How did CC1(C)CC(=O)C2=C(C1)N1C(=C(C#N)C2c2ccc(Cl)cc2)N=C(N)c2ccccc21 (configuration not stated) do in these assays?
T cruzi inh: 44; B2AR ag: 7; Calb FLC: 64; Beta apoptosis: -4; LANA-H2A inh: 2.8; UCH37 DUB inh: 1.0; RanGTP-Imp inh: 1.3; A1 inh: -0.3

What do the screens show for `COc1cc(OC)c(NC2=CC(=O)C(=O)c3ccccc32)cc1Cl`?
T cruzi inh: 20; B2AR ag: 11; Calb FLC: 5; Beta apoptosis: 120*; LANA-H2A inh: 2.0; RanGTP-Imp inh: -2.9; A1 inh: 0.6

How did COc1ccc(S(=O)(=O)NCc2ccco2)cc1-c1nnc2c3ccccc3c(C)nn12 do in these assays?
T cruzi inh: 39; B2AR ag: -14; Calb FLC: 0; Beta apoptosis: 3; LANA-H2A inh: 2.7; UCH37 DUB inh: 5.5; RanGTP-Imp inh: 4.9; A1 inh: -0.4

What do the screens show for `CC(C)c1csc(CN2CCC(CO)(Cc3cccc(F)c3)CC2)n1`?
T cruzi inh: 68*; B2AR ag: -5; Calb FLC: -3; Beta apoptosis: -4; LANA-H2A inh: 0.8; UCH37 DUB inh: -0.8; RanGTP-Imp inh: 0.7; A1 inh: 0.0

Results for CCC(=O)OC1(C)C(=O)C=C2C=C(CCCC(=O)OC)OC=C2C1=O (configuration not stated) ?
T cruzi inh: 3; B2AR ag: 8; Calb FLC: -8; Beta apoptosis: -3; LANA-H2A inh: 3.0; RanGTP-Imp inh: -7.0; A1 inh: 0.2

Results for O=C(CCS(=O)NCc1ccccc1)NCc1ccccc1 (configuration not stated) ?
T cruzi inh: -8; Calb FLC: 2; Beta apoptosis: -6; LANA-H2A inh: -3.3; RanGTP-Imp inh: 5.6; A1 inh: -0.4

How did O=C(N/N=C/c1c[nH]c2ccccc12)c1cc(-c2ccc(-c3ccccc3)cc2)n[nH]1 do in these assays?
T cruzi inh: 33; B2AR ag: 6; Calb FLC: 3; Beta apoptosis: 19; LANA-H2A inh: -1.5; RanGTP-Imp inh: 2.4; A1 inh: 0.1

Results for Cc1cc(C)c(NC(=O)C2CCCN(S(=O)(=O)c3c(C)noc3/C=C/N(C)C)C2)c(C)c1 (configuration not stated) ?
T cruzi inh: -1; B2AR ag: 6; Calb FLC: -3; Beta apoptosis: -4; LANA-H2A inh: -1.8; UCH37 DUB inh: 14; RanGTP-Imp inh: -2.4; A1 inh: 0.9

What do the screens show for `Cc1ccc(C)c(OCCCC(=O)N2CCOCC2)c1`?
T cruzi inh: -4; B2AR ag: -2; Calb FLC: -15; Beta apoptosis: -2; LANA-H2A inh: -3.8; UCH37 DUB inh: -0.8; RanGTP-Imp inh: 2.3; A1 inh: 0.3

Results for CCOC(=O)C1=C(C)N=c2s/c(=C\c3ccc(O)c([N+](=O)[O-])c3)c(=O)n2C1c1ccccc1OC (configuration not stated) ?
T cruzi inh: 9; B2AR ag: 7; Calb FLC: 45; Beta apoptosis: 31; LANA-H2A inh: -6.4; RanGTP-Imp inh: -0.8; A1 inh: -0.6

Results for Cc1cc2nnc(SC(C)C)n2c2ccccc12 ?
T cruzi inh: 5; B2AR ag: -6; Calb FLC: -3; Beta apoptosis: -7; LANA-H2A inh: -2.5; UCH37 DUB inh: -4.4; RanGTP-Imp inh: 0.6; A1 inh: 0.0

How did CCn1ncc(Br)c1C(=O)Nc1cc(C)cc(C)c1 do in these assays?
T cruzi inh: 11; B2AR ag: 6; Calb FLC: 38; Beta apoptosis: -1; LANA-H2A inh: 3.4; UCH37 DUB inh: 0.6; RanGTP-Imp inh: 1.2; A1 inh: 0.3

Results for COC(=O)c1ccc(-n2c(C)cc(C(=O)COC(=O)C3=COCCO3)c2C)cc1 ?
B2AR ag: -1; Beta apoptosis: 6; LANA-H2A inh: 0.8; UCH37 DUB inh: -0.9; A1 inh: inconclusive

Results for COc1ccccc1CN=C1NC(=O)C(CC(=O)Nc2ccc(C(C)=O)cc2)S1 (configuration not stated) ?
T cruzi inh: -2; B2AR ag: -9; Calb FLC: -12; Beta apoptosis: 2; LANA-H2A inh: 0.1; UCH37 DUB inh: -1.2; RanGTP-Imp inh: -3.5; A1 inh: 0.3

Results for CCSc1nsc(NC(=O)Nc2ccc(F)cc2F)n1 ?
T cruzi inh: -1; B2AR ag: 10; Calb FLC: 2; LANA-H2A inh: -2.4; UCH37 DUB inh: 5.1; RanGTP-Imp inh: -1.4; A1 inh: -3.6

What do the screens show for `CC(C)NC(=O)c1nn2c(C(F)(F)F)cc(-c3ccco3)nc2c1Cl`?
T cruzi inh: -3; B2AR ag: -5; Calb FLC: -3; Beta apoptosis: 5; LANA-H2A inh: 43*; UCH37 DUB inh: 1.1; RanGTP-Imp inh: inconclusive; A1 inh: 1.4

How did Cc1ccc(CNC(=O)C(N=C2NS(=O)(=O)c3ccccc32)C(C)C)cc1 (configuration not stated) do in these assays?
B2AR ag: -6; Beta apoptosis: -3; LANA-H2A inh: -1.0; UCH37 DUB inh: 3.4; A1 inh: 0.4

Results for O=C(CNc1cccc(S(=O)(=O)N2CCCC2)c1)Nc1cccc(F)c1 ?
T cruzi inh: 8; B2AR ag: -6; Calb FLC: 7; Beta apoptosis: 2; LANA-H2A inh: 0.4; UCH37 DUB inh: 0.4; RanGTP-Imp inh: 1.0; A1 inh: 1.4

What do the screens show for `COCCN1CCN(C(=O)c2ccc3nc(Cc4ccc(OC)c(OC)c4)oc3c2)CC1`?
T cruzi inh: -21; B2AR ag: -4; Calb FLC: -4; Beta apoptosis: 30; LANA-H2A inh: 1.1; UCH37 DUB inh: 1.5; RanGTP-Imp inh: -1.6; A1 inh: -0.7

Results for O=c1c2ccccc2ncn1-c1cccc([N+](=O)[O-])c1 ?
T cruzi inh: -10; B2AR ag: -20; Calb FLC: 6; Beta apoptosis: -5; LANA-H2A inh: 3.8; UCH37 DUB inh: 4.9; RanGTP-Imp inh: 6.5; A1 inh: -0.3

How did O=C(CSc1nnc2ccccn12)Nc1ccc(S(=O)(=O)N2CCOCC2)cc1 do in these assays?
T cruzi inh: 2; B2AR ag: -3; Calb FLC: 3; Beta apoptosis: -2; LANA-H2A inh: 3.7; UCH37 DUB inh: 2.9; RanGTP-Imp inh: -2.3; A1 inh: 0.5

What do the screens show for `CC(=O)N1CCN(c2ccc(NC(=O)c3cc4ccccc4o3)cc2)CC1`?
T cruzi inh: -14; B2AR ag: -1; Calb FLC: 6; LANA-H2A inh: -0.7; UCH37 DUB inh: 6.4; RanGTP-Imp inh: 3.1; A1 inh: -1.2

How did CSCCC(NC(=O)c1ccco1)C(=O)N1CCCCCCC1 (configuration not stated) do in these assays?
T cruzi inh: -8; B2AR ag: 5; Calb FLC: 2; Beta apoptosis: -3; LANA-H2A inh: 4.1; UCH37 DUB inh: 2.3; RanGTP-Imp inh: 2.5; A1 inh: 2.3

Results for Cc1ccc(C)c(N(CC(=O)NC2CCCC2)C(=O)c2csnn2)c1 ?
T cruzi inh: -7; B2AR ag: 2; Calb FLC: -3; Beta apoptosis: 2; LANA-H2A inh: 1.8; UCH37 DUB inh: 2.6; RanGTP-Imp inh: -2.5; A1 inh: -0.4

Results for O=C(Oc1ccc[nH]c1=O)c1cccc(Cl)c1 ?
T cruzi inh: 1; B2AR ag: -5; Calb FLC: -31; LANA-H2A inh: -5.3; UCH37 DUB inh: -1.1; RanGTP-Imp inh: -2.2; A1 inh: -0.1

What do the screens show for `O=C(NCC1CCCO1)c1ccc(S(=O)(=O)Nc2ccccc2F)cc1` (configuration not stated)?
T cruzi inh: -4; B2AR ag: 3; Calb FLC: 0; Beta apoptosis: -7; LANA-H2A inh: -6.1; UCH37 DUB inh: 2.4; RanGTP-Imp inh: -1.2; A1 inh: 0.5

How did COc1ccc(C)cc1Nc1n[n+](-c2ccccc2)c(-c2cc(OC)c(OC)cc2Br)s1 do in these assays?
T cruzi inh: 48; B2AR ag: 11; Calb FLC: -11; Beta apoptosis: 20; LANA-H2A inh: -8.7; UCH37 DUB inh: 6.0; RanGTP-Imp inh: -3.9; A1 inh: -0.8

What do the screens show for `COc1cccc(N(C(=O)c2snc(C(N)=O)c2N)C(C(=O)NCc2ccccc2)c2ccc(O)cc2)c1` (configuration not stated)?
T cruzi inh: 10; B2AR ag: 3; Calb FLC: 15; Beta apoptosis: 1; LANA-H2A inh: -3.6; UCH37 DUB inh: -36; RanGTP-Imp inh: 2.0; A1 inh: -0.8

How did Cc1ccccc1NC(=O)CSc1nc(Nc2ccccc2)nc(N2CCOCC2)n1 do in these assays?
T cruzi inh: 33; B2AR ag: -18; Calb FLC: -6; Beta apoptosis: -2; LANA-H2A inh: -0.6; UCH37 DUB inh: 1.4; RanGTP-Imp inh: -2.3; A1 inh: 0.0

How did O=C(NCc1ccccc1)N1CCC(Cc2ccccc2)CC1 do in these assays?
T cruzi inh: -10; B2AR ag: 2; Calb FLC: -10; Beta apoptosis: 3; LANA-H2A inh: 2.3; UCH37 DUB inh: 0.9; RanGTP-Imp inh: -3.1; A1 inh: 0.4
